Screening data as filed in PubChem.
FGF22 binding: shifts melting point of recombinant human FGF22. Q9HCT0. recombinant FGF22 thermal shift, SYPRO orange fluorescence; percent of sucrose octasulfate shift, DMSO zero. calls only at 9.99 µM. hit rate 1.5% among 340,000. AID 651658;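 active = melting point raised past a set limit in the mean and every replicate; inconclusive = no clear call; three in four hits are not shown here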
Target sequence (Q9HCT0 whole entry, looked up): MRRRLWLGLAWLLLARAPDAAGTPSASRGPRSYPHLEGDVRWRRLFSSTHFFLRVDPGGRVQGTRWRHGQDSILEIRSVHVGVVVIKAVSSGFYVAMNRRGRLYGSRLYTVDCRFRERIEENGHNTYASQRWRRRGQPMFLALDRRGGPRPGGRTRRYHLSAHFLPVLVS
Bfl-1 A1 inh: inhibitors of the anti-apoptotic protein A1, read as caspase activation. MEF A1-2A-BIM cells, Caspase-Glo 3/7 luminescence, 3 h; percent of clofoctol response, vehicle zero. AID 2462. caspase activation, % (concentration not given with the values). hit rate 0.066% among 330,000;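 active = over half of replicate activation scores above 10%, or exactly half above 10 with the replicate mean above 10; inconclusive = replicate mean below 10 yet half the replicates above 10; inactive = over half of replicates below 10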;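 note: wells of about 30 µL received 50 nL stock; many hits fall short of the cut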
T cruzi repl: blocks replication of Trypanosoma cruzi; T. cruzi beta-gal in NIH3T3, luminescence, 90 h; inhibition, % (test concentration not listed); hit rate 1.4% among 300,000; AID 1885;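 active = mean inhibition across valid replicates above about 55%, limit read from the data; inconclusive = mean below that limit but half or more replicates reach it; inactive = mean below it, under half of replicates reach it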;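 note: signal also drops with host cell toxicity which is not excluded here; 0% = plate median of DMSO wells and 100% = zero luminescence signal; higher percent means less beta-gal luminescence so fewer parasites; stock transfer was 50 nL into about 50 µL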
Beta apoptosis: beta cell apoptosis inhibition. INS-1E cytokine-induced death, ATP luminescence, 48 h; percent of positive-control rescue, neutral wells zero. protection from apoptosis, % (no concentration beside the values). hit rate 0.8% among 300,000. AID 435005;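 active = all replicates at 75% or more, or half of them and the mean; inconclusive = half reach 75% but not the mean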;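 note: 0% = cytokine-treated negative control wells and 100% = positive control rescue; higher means more ATP so stronger rescue from cytokine killing; wells of about 40 µL received 100 nL stock; the first replicate is given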
AF4-AF9 inh: blocks AF4 peptide binding to human AF9 | P42568 | AlphaScreen, biotin-AF4 peptide binding to FLAG-AF9 | inhibition, % at 10 µM | hit rate 0.47% among 350,000;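 active = every replicate reaching a set inhibition limit, whatever the replicate mean, cut at about 25% in these data; inconclusive = mean inhibition reaches that limit but some replicates miss it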;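 note: 0% = plate neutral control median and 100% = total signal loss; the record names both 10 and 1 µM as test concentration; the first replicate is given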
Target sequence (P42568 whole entry, looked up): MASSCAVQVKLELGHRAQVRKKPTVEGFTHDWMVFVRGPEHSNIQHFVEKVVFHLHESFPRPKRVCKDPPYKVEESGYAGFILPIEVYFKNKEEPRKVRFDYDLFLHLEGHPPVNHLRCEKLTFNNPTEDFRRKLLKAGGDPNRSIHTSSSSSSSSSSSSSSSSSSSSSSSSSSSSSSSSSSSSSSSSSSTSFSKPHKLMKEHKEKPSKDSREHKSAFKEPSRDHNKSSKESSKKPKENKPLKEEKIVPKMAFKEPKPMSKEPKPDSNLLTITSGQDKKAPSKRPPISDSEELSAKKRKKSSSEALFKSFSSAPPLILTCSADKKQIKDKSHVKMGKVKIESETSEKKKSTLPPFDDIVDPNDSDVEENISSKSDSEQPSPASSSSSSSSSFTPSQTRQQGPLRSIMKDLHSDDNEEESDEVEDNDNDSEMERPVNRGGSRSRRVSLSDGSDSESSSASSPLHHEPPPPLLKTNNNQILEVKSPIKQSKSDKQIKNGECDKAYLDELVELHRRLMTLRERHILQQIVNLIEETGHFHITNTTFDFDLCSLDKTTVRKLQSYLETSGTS
rRNA inh HTS: selective bacterial rRNA inhibition in E. coli. E. coli WT GFP vs humanized-ribosome RFP mutants, fluorescence, 24 h; hits give low values; DMSO median 0, no signal -100. GFP signal change (wild-type ribosome), % (test concentration not listed). hit rate 1.6% among 350,000;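 active = significant combined selectivity score with lowered wild-type GFP, culture density cut under 30%, mutant RFP and density less affected; inactive = any of these conditions unmet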; note: one replicate is shown; some compounds called inactive have numbers as strong as hits
UCH37 inh: inhibitors of human deubiquitinating enzyme UCH37; Q9Y5K5; purified proteasome/UCH37, Ub-AMC cleavage fluorescence; hit rate 0.33% among 330,000; AID 588478; inhibition, % (no concentration beside the values);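 active = mean of two replicates above 20%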;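 note: 0% = compound-free wells with enzyme and 100% = wells lacking proteasome; stock transfer was 100 nL into about 20 µL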
Target sequence (Q9Y5K5 whole entry, looked up): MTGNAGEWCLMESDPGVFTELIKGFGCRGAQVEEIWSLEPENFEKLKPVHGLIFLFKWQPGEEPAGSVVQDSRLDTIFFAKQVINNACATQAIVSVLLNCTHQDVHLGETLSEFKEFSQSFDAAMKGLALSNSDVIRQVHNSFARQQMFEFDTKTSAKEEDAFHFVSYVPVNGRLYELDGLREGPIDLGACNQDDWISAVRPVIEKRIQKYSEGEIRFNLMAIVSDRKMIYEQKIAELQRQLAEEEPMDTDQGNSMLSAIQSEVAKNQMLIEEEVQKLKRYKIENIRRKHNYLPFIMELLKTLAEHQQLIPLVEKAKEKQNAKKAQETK
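Test system – human UCH37 enzyme supplied as purified proteasome complex · Incubation – 30 min preincubation with enzyme, 25 min cleavage at room temperature · Detection – AMC fluorescence from Ub-AMC cleavage, excitation 355 nm, emission 460 nm · Benchmarks – no-proteasome wells (full inhibition) and compound-free wells (no inhibition)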
E coli growth: inhibitors of Escherichia coli growth. AID 1053175. OD600, 23 h; hits give low values. OD600 absorbance (concentration not given with the values). hit rate 0.21% among 330,000;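 active = OD600 absorbance below the run mean of sample wells minus 3.6 SD, in any replicate, cut at about 0.56 in these data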;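 note: stock transfer was 300 nL into about 60 µL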
rRNA inh HTS OD600: further read-out of rRNA inh HTS, marked with its call; OD600 change, %; measured here: OD600 growth;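 optical density of the mix in the first replicate; 0 = DMSO median and -100 = no signal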
rRNA inh HTS RFP: further read-out of rRNA inh HTS, marked with its call; RFP signal change, %; measured here: RFP humanized mutant strains;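 first replicate; 0 = DMSO median and -100 = no signal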
Starred values were filed as active, the others as inactive; i = inactive; u = inconclusive; x = not tested or not shown.

SMILES | FGF22 binding | Bfl-1 A1 inh | T cruzi repl | Beta apoptosis | AF4-AF9 inh | rRNA inh HTS | rRNA inh HTS OD600 | rRNA inh HTS RFP | UCH37 inh | E coli growth
COc1ccc(CNC(=O)C(OC(=O)c2ccco2)c2ccc(OC)cc2)cc1 (centres undefined) | x | 0.0 | -3 | -5 | x | x | x | x | 0.6 | 0.68
Clc1c(-c2nnc3n2CCC3)sc2ccccc12 | x | 0.2 | -8 | -2 | x | x | x | x | 5.5 | 0.7
CC(Sc1nnc(-c2ccco2)n1C)C(=O)N(C)C1CCCCC1 (centres undefined) | i | 0.3 | -9 | x | -0.1 | 7 | 5 | -1.2 | 1.3 | 0.68
Cc1ccc(C(=O)C2CCN(CC(=O)Nc3ccc4c(c3)OCCO4)CC2)cc1 | x | 0.3 | 8 | -4 | x | x | x | x | 1.0 | 0.73
CCCCc1nnc(SCC(=O)Nc2nccs2)n1CC | i | 1.2 | -8 | x | -0.7 | -3 | 4 | -2.6 | 4.5 | 0.69
N[C@@]12CCc3nonc3[C@]1(O)CC(c1ccccc1)=[N+]2[O-] | x | -0.1 | -16 | x | x | x | x | x | -0.2 | 0.73
COc1ccc([C@H]2/C=C\CN(C(=O)CC(C)(C)C)[C@@H](C)C(=O)N2Cc2ccc(F)cc2)cc1 | i | -0.2 | 28 | 1 | x | -5 | 0 | -3.8 | 0.2 | x
CCOC(=O)/C(C#N)=C(C)/C=C1\Sc2ccccc2N1CC | i | -0.2 | 18 | 8 | -1.3 | 41 | 1 | -3.7 | 2.5 | 0.68
Cc1nc2ccccc2n1Cc1ccccc1Br | i | -0.2 | 9 | 6 | 2.1 | -21 | -27 | -9.6 | 3.3 | 0.69
CNC(=O)COC(=O)CCC(=O)c1cccs1 | i | 0.6 | -2 | -4 | -1.4 | 5 | -6 | 1.7 | -3.2 | 0.66
COCC(=O)Nc1ccc(S(=O)(=O)Nc2ccccn2)cc1 | i | -0.1 | -7 | x | -0.9 | 15 | 12 | 0.9 | -3.8 | 0.66
CC1(C)C(=O)N(OCc2ccccc2)C(C)(C)C(=O)N1OCc1ccccc1 | x | 0.3 | -2 | -8 | x | x | x | x | -6.8 | 0.75
O=C(CSc1nnc(C2CC2)n1Cc1ccccc1)N1CCN(S(=O)(=O)c2ccccc2)CC1 | x | 0.8 | 10 | 0 | x | x | x | x | 3.2 | 0.71
Cc1cc(C(F)(F)F)c(C#N)c(=O)[nH]1 | x | -1.3 | x | -1 | x | x | x | x | i | 0.75
COc1ccccc1Oc1cn[nH]c1-c1ccc(OCC(=O)NN)cc1O | i | 0.8 | -8 | x | 1.1 | 4 | 3 | 1.2 | 1.8 | 0.7
COc1ccc(-c2sc3ccccc3c2C#CCO)cc1 | i | 0.9 | -19 | -5 | 3.0 | -31 | -42 | -17 | 1.4 | x
Cc1c(Cl)cccc1N1C(=O)C(N2C(=O)c3cccc([N+](=O)[O-])c3C2=O)C1c1cccs1 (centres undefined) | x | 0.3 | -23 | 3 | x | 11 | -2 | 4.0 | 2.6 | 0.67
COc1ccc(CNC(C)(C)C)cc1Cl | i | 0.8 | -17 | 0 | 2.3 | 16 | 10 | -11 | 1.1 | 0.65
CCCCOC(=O)Nc1ccccc1C(=O)OC | x | -0.9 | 8 | 1 | x | x | x | x | 4.4 | 0.75
COc1ccc(C(=O)OCC(=O)NC2CCCC2)cc1OC | i | 1.5 | -3 | -6 | -1.7 | 11 | 15 | -0.9 | 4.1 | 0.67
C1CN(c2nc3nonc3nc2N2CCSCC2)CCO1 | i | -0.1 | -9 | 5 | -0.8 | 11 | 7 | 3.4 | 8.7 | 0.64
COc1ccc2c(c1)C(NC(C)=O)C(=O)N2CCc1ccccc1 (centres undefined) | i | 0.8 | -1 | 0 | -3.4 | 7 | -4 | -1.3 | 0.7 | 0.7
COC(=O)c1c(NC(=S)Nc2ccc(CC(=O)O)cc2)sc(C)c1C | x | 0.1 | -6 | -4 | x | x | x | x | 9.1 | 0.7
CC1(C)OC(=O)C2(Cc3ccccc3N3CCCCC32)C(=O)O1 (centres undefined) | x | 0.2 | -6 | 1 | x | x | x | x | -0.3 | 0.63
O=C(O)CCC(=O)N1CCc2cc(S(=O)(=O)NCCc3ccc(Cl)cc3)ccc21 | x | 2.1 | 11 | -6 | x | x | x | x | 1.2 | 0.7

Copied from the results shown, 5 compounds:
SMILES | FGF22 binding | Bfl-1 A1 inh | T cruzi repl | Beta apoptosis | AF4-AF9 inh | rRNA inh HTS | rRNA inh HTS OD600 | rRNA inh HTS RFP | UCH37 inh | E coli growth
C1CN(c2nc3nonc3nc2N2CCSCC2)CCO1 | i | -0.1 | -9 | 5 | -0.8 | 11 | 7 | 3.4 | 8.7 | 0.64
COc1ccc2c(c1)C(NC(C)=O)C(=O)N2CCc1ccccc1 (centres undefined) | i | 0.8 | -1 | 0 | -3.4 | 7 | -4 | -1.3 | 0.7 | 0.7
COC(=O)c1c(NC(=S)Nc2ccc(CC(=O)O)cc2)sc(C)c1C | x | 0.1 | -6 | -4 | x | x | x | x | 9.1 | 0.7
CC1(C)OC(=O)C2(Cc3ccccc3N3CCCCC32)C(=O)O1 (centres undefined) | x | 0.2 | -6 | 1 | x | x | x | x | -0.3 | 0.63
O=C(O)CCC(=O)N1CCc2cc(S(=O)(=O)NCCc3ccc(Cl)cc3)ccc21 | x | 2.1 | 11 | -6 | x | x | x | x | 1.2 | 0.7

Additional compounds.
SMILES | FGF22 binding | Bfl-1 A1 inh | T cruzi repl | Beta apoptosis | AF4-AF9 inh | rRNA inh HTS | rRNA inh HTS OD600 | rRNA inh HTS RFP | UCH37 inh | E coli growth
CC(=O)NS(=O)(=O)c1ccc(N=NN2CCCCC2)cc1 | i | -1.8 | 3 | -3 | 7.7 | -5 | -1 | -10 | 10 | 0.67
COCCN(C(=O)COC(=O)/C=C/c1ccc2ccccc2n1)c1c(N)n(Cc2ccccc2)c(=O)[nH]c1=O | i | 0.2 | 4 | -10 | -1.1 | 14 | 18 | 5.5 | -1.1 | 0.73
Cc1noc(C)c1C(=O)OCC(=O)NCCc1ccc(Cl)cc1 | x | 0.4 | -10 | -3 | x | x | x | x | 2.2 | 0.67
Cc1ccc(S(=O)(=O)N2CCCC2c2nc3ccccc3s2)cc1 (centres undefined) | x | 0.3 | -7 | -6 | x | x | x | x | 2.8 | 0.69
Cc1cc2c(ncn2C(C)C)c(N)c1C | x | 0.7 | -6 | -1 | x | x | x | x | -1.6 | 0.72
COc1ccccc1N1CC(C(=O)NCCC2=CCCCC2)CC1=O (centres undefined) | i | 1.1 | x | 0 | -16 | 0 | 4 | -3.5 | 0.2 | 0.69
COc1cccc(CNC(=O)c2cc3ccccn3n2)c1 | i | -3.2 | -6 | -5 | -9.0 | -1 | -1 | -0.3 | 7.4 | 0.69
O=C(CCCN1C(=O)/C(=C\c2cccs2)SC1=S)Nc1cccc(C(=O)O)c1 | i | -2.7 | -10 | -2 | 0.6 | 23 | 17 | 22 | 3.9 | 0.68
C=CCN(CC=C)CCOc1ccccc1[N+](=O)[O-] | i | 0.1 | 3 | 0 | 1.8 | 5 | 9 | 0.0 | 2.5 | 0.7
CCc1[nH]nc(C(=O)N2CCCC(Nc3cccc(F)c3)C2)c1C (centres undefined) | i | 1.3 | 0 | -6 | 0.8 | -2 | -4 | -2.1 | -1.0 | 0.67
CCOC(=O)C1CCN(C(=O)/C=C/c2ccc3c(c2)OCO3)CC1 | i | -0.3 | -7 | -2 | 0.2 | -10 | 0 | -2.4 | -11 | 0.65
CCN(CC)CCNC(=O)c1cn(CC)c2ccc(S(=O)(=O)N(C)C)cc2c1=O | i | 1.5 | 5 | -9 | 0.1 | 6 | 2 | -0.5 | 8.1 | 0.75
CCCC(CCC)=NNC(=O)CN(Cc1ccccc1)S(=O)(=O)c1ccccc1 | x | 0.3 | 9 | -6 | x | x | x | x | 1.5 | 0.7
O=S(=O)(/C=C/c1ccccc1)N1CCc2ccccc2C1 | i | 1.7 | 16 | -7 | 0.6 | 6 | -6 | -2.8 | 3.7 | 0.69
Cn1c(=O)cc(SCC(=O)NCc2cccnc2)c2ccccc21 | x | -0.6 | -1 | 0 | x | x | x | x | -0.9 | 0.72
CC(C(=O)NCc1ccco1)c1ccc([N+](=O)[O-])cc1 (centres undefined) | i | 0.2 | -11 | -8 | 0.0 | 6 | 13 | -1.9 | -0.3 | 0.65
O=C(Nc1c2ccccc2nc2ccccc12)C(Cl)(Cl)Cl | x | -0.3 | 22 | u | x | x | x | x | -10 | 0.73
CC1Cc2ccccc2N1C(=O)CSc1nnnn1C (centres undefined) | x | 0.0 | 4 | -5 | x | x | x | x | 2.6 | 0.69
O=C(CSc1nc2c(c(=O)n1-c1ccc(F)cc1)SCC2)N1CCCC1 | x | 0.1 | 10 | 7 | x | x | x | x | 7.3 | 0.72
NC(=O)NNc1ncc(C(F)(F)F)cc1Cl | i | 1.5 | 1 | 1 | -1.8 | x | x | x | -0.3 | 0.75
CCOc1ccc(N(CC(=O)NCCc2ccc(F)cc2)S(=O)(=O)c2ccccc2)cc1 | i | -0.5 | 34 | x | 2.0 | 5 | 8 | 5.0 | x | x
S=C1NC2(CCCCC2)N=C1c1ccccc1 | x | -0.2 | 1 | -2 | x | x | x | x | 1.8 | 0.71
CC1CCCN(C(=O)C2CCN(C(=O)Nc3ccccc3)CC2)C1 (centres undefined) | i | 0.3 | x | 5 | 1.6 | 7 | 14 | 1.7 | 0.8 | 0.66
CC(C)(C)OC(=O)COc1cc(O)c2c(=O)cc(-c3ccccc3)oc2c1 | i | 1.2 | 15 | -6 | -0.6 | 14 | 22 | 4.4 | -0.4 | 0.71
COc1ccccc1CC(=O)Nc1ccc(C(=O)N2CCCCC2)cc1 | i | -0.3 | 3 | -3 | -0.9 | 6 | 2 | -1.3 | -2.0 | 0.71
CC(=O)c1c(C)oc2ccc(N(C(C)=O)S(=O)(=O)c3ccc(F)cc3C)cc12 | i | 0.5 | 30 | 8 | -2.4 | 8 | 10 | 2.3 | -0.7 | 0.69
O=C(c1ccc2c(c1)OCO2)N1CCN(S(=O)(=O)c2ccc(Cl)cc2)CC1 | i | 0.2 | 5 | 0 | 0.0 | 2 | -2 | -1.5 | 2.6 | 0.7

A second format for part of the listing above.
compound	FGF22 binding	Bfl-1 A1 inh	T cruzi repl	Beta apoptosis	AF4-AF9 inh	rRNA inh HTS	rRNA inh HTS OD600	rRNA inh HTS RFP	UCH37 inh	E coli growth
COc1cccc(CNC(=O)c2cc3ccccn3n2)c1	i	-3.2	-6	-5	-9.0	-1	-1	-0.3	7.4	0.69
O=C(CCCN1C(=O)/C(=C\c2cccs2)SC1=S)Nc1cccc(C(=O)O)c1	i	-2.7	-10	-2	0.6	23	17	22	3.9	0.68
C=CCN(CC=C)CCOc1ccccc1[N+](=O)[O-]	i	0.1	3	0	1.8	5	9	0.0	2.5	0.7

Some of the compounds tested; rates above refer to the full screens.
